D2 ag = activates the human D2 dopamine receptor | DiscoveRx PathHunter D2 beta-arrestin, luminescence, 90 min; 100% = 57 uM dopamine signal | hit rate 0.084% among 360,000 | AID 624465 | P14416 | activation, % (test concentration not listed); in the data active = activation above about 40%; inconclusive = about 15% to 40%; inactive = below about 15%; also: compound concentration not given in the record; the text of the record calls up to 30% inactive
Target sequence (P14416 whole entry, looked up): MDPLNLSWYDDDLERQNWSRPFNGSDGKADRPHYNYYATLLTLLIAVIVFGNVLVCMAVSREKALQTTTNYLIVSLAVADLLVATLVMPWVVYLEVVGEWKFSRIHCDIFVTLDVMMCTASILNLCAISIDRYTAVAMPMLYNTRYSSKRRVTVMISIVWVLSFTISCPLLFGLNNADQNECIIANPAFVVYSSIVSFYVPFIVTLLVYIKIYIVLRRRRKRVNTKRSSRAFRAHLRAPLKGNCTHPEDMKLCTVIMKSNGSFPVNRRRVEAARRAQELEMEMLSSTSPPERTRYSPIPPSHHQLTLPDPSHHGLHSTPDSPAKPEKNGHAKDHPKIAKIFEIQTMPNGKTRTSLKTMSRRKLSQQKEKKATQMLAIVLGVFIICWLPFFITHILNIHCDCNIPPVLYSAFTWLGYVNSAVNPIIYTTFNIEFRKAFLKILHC
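Agonist mode: compounds alone added to overnight-plated D2 PathHunter cells for 90 min at 37 C, with 57 uM final dopamine (EC100) defining full response. Beta-arrestin recruitment detected by chemiluminescent reagent, read after 1 h at ambient temperature.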
ClpP mod = qHTS Assay for Activators of ClpP; ATP-dependent Clp protease proteolytic subunit (Bacillus subtilis (strain 168)), P80244; purified B. subtilis ClpP, FRET peptide cleavage, 20 min; Potency, µM (series often up to 57.5 µM), for inactives: at the top dose activity change, negative = active; hit rate 1.9% among 340,000; AID 651965, 2013; active = well fitted falling curve with a large enough effect; inconclusive = small, poorly fitted or top-dose-only effect; inactive = no such curve, though single readings can be large or run the other way; also: potency is read from the fitted curve at half-maximal effect; the source files actives as falling curves though it sought activators and does not explain the sign; nearly all actives have a fitted effect of over 65% in size; many hits overshoot -100%
Target sequence (P80244 whole entry, looked up): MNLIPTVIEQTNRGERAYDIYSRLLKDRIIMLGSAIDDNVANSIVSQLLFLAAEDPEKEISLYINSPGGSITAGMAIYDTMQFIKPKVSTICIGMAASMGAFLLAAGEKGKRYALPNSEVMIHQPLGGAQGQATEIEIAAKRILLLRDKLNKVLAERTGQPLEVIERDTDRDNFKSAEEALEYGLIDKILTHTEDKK
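FRET quenching reversal measured ClpP activation: 10 microg/mL B. subtilis ClpP at pH 8 with the FRET-FV decapeptide, read at 430 nm after 320 nm excitation. The 20-min minus 0-min signal was scaled between DMSO/no-enzyme wells and ADEP (5.8 microM final).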
PINK1 modulator = changes PINK1 expression; PINK1 immunofluorescence, high-content cytometry, 24 h; Potency, µM (doses to about 76.6 µM), for inactives: top-dose activation (PINK1 increase), usual class: activators; AID 624263; hit rate 0.2% among 410,000; active = well fitted activation curve with a large enough effect; inconclusive = small, poorly fitted or top-dose-only effect; inactive = flat fitted curve, though single readings scatter; cell line not stated here;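 also: potency is read from the fitted curve at half-maximal effect; % of control where 0% means no effect; nearly all actives have a fitted effect of over 65% in size; a mitochondrial uncoupler was the plate control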
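Decision-based qHTS: stable cells, 24 h exposure to five compound concentrations, CCCP as control. Fixed cells stained for PINK1 plus nuclear, mitochondrial and cell markers, cytometer read.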
Sfp PPTase inh = Sfp phosphopantetheinyl transferase inhibition | hit rate 3.5% among 310,000 | AID 1490 | Potency, µM, inactives show max response, negative = inhibition, most hits filed as inhibitors | Biochemical Sfp PPTase activity, qHTS; active = well fitted inhibition curve with a large enough effect; inconclusive = small, poorly fitted or top-dose-only effect, or another doubt; inactive = no such curve, though single readings can be large or run the other way;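 also: the enzyme is Sfp with the accession as filed and its product quenches rhodamine fluorescence; potency is read from the fitted curve at half-maximal effect; 0% = enzyme reaction without inhibitor and -100% = no enzyme wells; top concentration of the series not given in the record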
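Reaction rates are the 30-min fluorescence difference (ex 525, em 598 nm) in wells containing 15 nM Sfp, 5 uM rhodamine-CoA and 12.5 uM BHQ-2-YbbR at pH 7.6 with 10 mM MgCl2.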
Menin MLL FP FL = inhibitors of human menin-MLL interaction, wild-type MLL peptide; AID 1766; 290,000 tested, under 10 active; Fluorescence polarization, fluorescein-MLL peptide displacement from menin; FP activity change, % at 61.4 µM; inconclusive = falling polarisation curve, or a change in total fluorescence; inactive = total fluorescence flat and polarisation flat or rising; no compound was filed as active; the % refers to the polarisation; negative = inhibition;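 also: % of control where 0% means no effect; inhibitors lower the polarisation; unlabelled MLL peptide was the positive control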
gsp antag = antagonists of gsp mutant (McCune-Albright syndrome) | gsp-mutant cells, cAMP HTRF, 30 min; control for the full effect not named in the record | Potency, µM (doses to about 76.9 µM), inactives show top-dose activity change, negative = inhibition, hits mostly inhibitors | hit rate 0.4% among 340,000; active = falling curve of any shape with a large fitted effect; inconclusive = falling curve, mostly with a smaller effect; inactive = flat or rising curve; cell line not stated here;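 also: intracellular cAMP measured with PDE inhibitor Ro 20-1724 present during compound exposure; potency is read from the fitted curve at half-maximal effect; % is scaled to controls: 0 for no effect and ±100 for the full control effect; nearly all actives have a fitted effect of over 65% in size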
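HTRF cAMP measurement after 30 min RT detection following 30 min, 37C compound treatment alongside […] (added as 300 uM solution) in G418-selected cells seeded at 2000/well and grown 16–24 h.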
gsp agonist = agonists of gsp mutant (McCune-Albright syndrome). Potency, µM (doses to about 76.9 µM), for the others: at the top dose activation (cAMP increase), most hits filed as activators. gsp mutant cells, cAMP HTRF, 30 min; control for the full effect not named in the record. hit rate 0.13% among 340,000; active = well fitted activation curve with a large enough effect; inconclusive = small, poorly fitted or top-dose-only effect, or another doubt; inactive = no such curve, though single readings can be large or run the other way; cell line not stated here;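 also: phosphodiesterase inhibitor Ro 20-1724 added with compounds to block cAMP breakdown; potency is read from the fitted curve at half-maximal effect; nearly all actives have a fitted effect of over 60% in size; about a fifth of the inactives were tested at one dose only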
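Cells in DMEM/10% FBS with G418 were pretreated with compounds in DMSO plus […] (300 uM stock) for 30 min at 37C. cAMP was measured by HTRF (cAMP-d2 plus anti-cAMP antibody-K) after 30 min at room temperature.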
An asterisk follows results filed as active; ? = inconclusive; . = no result given; & = joins results of further samples; [ ] = another dose, or the depositor's remark.

Order of values – D2 ag, ClpP mod, PINK1 modulator, Sfp PPTase inh, Menin MLL FP FL, gsp antag, gsp agonist
> CCOC(=O)c1nn(-c2cccc(OC)c2)c2nc(Nc3ccccc3)cc(=O)n12
→ -13, 255%, ?, 11%, ?, ?, 1%
> Cc1cc(C)n(Cc2ccccc2Cl)n1
→ -1.5, -0.4%, -1.3%, 7%, 2.0, 13%, -1%
> CC(=O)Nc1ccc(NC(=O)c2cc(C3CC3)nc3c2cnn3C(C)C)cc1
→ -2.0, ., 16%, ., ., -2%, 3%[15.4 µM]
> COC(=O)c1cn(NC(=O)Cc2ccccc2OC)c(=O)c2ccccc12
→ -4.1, -4.5%, 1.3%, 33%[activator], -0.3, -8%, 21%
> O=[N+]([O-])c1ccc(N=Nc2c(O)[nH]c3ccc(F)cc23)cc1
→ -5.7, ., 0.7%, -12%, ?, -12%, 4%[15.4 µM]
> CCCCc1nc2sc3c(c2c(=O)n1NC(=O)c1ccco1)CC(C)(C)OC3
→ -3.1, -1.6%, -0.6%, 15%, 0.2, 7%, 16%
> COC(=O)/C(=C/c1ccco1)NC(=O)c1ccc(Br)o1
→ 2.7, ., 1.2%, 45µM*, ?, 3%, 25%
> O=C(COc1ccccc1[N+](=O)[O-])NC1CC1
→ -3.3, ., -1.5%, 21%, -0.5, ., 6%[15.4 µM]
> O=C(O)c1c2c(nc3ccccc13)/C(=C/c1ccc(O)cc1)CC2
→ 5.3, -13%, -0.3%, -21%, ?, 1%, ?
> NC(=O)Cc1ccc(C(=O)c2ccccc2F)s1
→ 0.7, ., 3.6%, 10%, -3.2, 5%, 2%
> Cc1ccc(CNC(=O)/C=C/c2ccccc2Cl)cc1
→ -8.5, -0.3%, 1.9%, -1%, -1.8, 6%, -41%[inhibitor]
> Cc1occc1-c1nnc(SCCNCCO)o1
→ -4.0, ., 1.5%, 19%, 2.2, 9%, -6%[15.4 µM]
> O=C(COC(=O)CC1CCCC1)Nc1cc2c(cc1Cl)C(=O)c1ccccc1C2=O
→ 2.0, 1.6%, 1.4%, 15%, 0.4, -9%, -22%
> Cc1nn(Cc2ccccc2)c(C)c1CNC(=O)CN=C1NS(=O)(=O)c2ccccc21
→ -6.0, 22µM*, 0.0%, ., ., 3%, 0%[15.4 µM]
> CC(=O)NCC(=O)OCC(=O)c1ccc(Br)cc1
→ -3.8, 0.6%, 0.6%, 6%, 5.1, -2%, -2%
> FC(F)(F)c1cnc(-c2cnc(-c3ccncc3)nc2)c(Cl)c1
→ -1.8, ., 4.2%, -3%, -3.9, 3%, 8%[15.4 µM]
> Cc1ccc(NC(=O)CNc2ccc(N3CCOCC3)cc2)cc1S(=O)(=O)N(C)C
→ 1.5, ., 0.3%, 24%, -0.7, ., 10%[15.4 µM]
> Cc1cccc(NC(=S)N2CCN(Cc3ccccc3)CC2)c1C
→ -2.1, 3.1%, 1.1%, 17%, 2.4, 9%, 8%
> COc1ccc(/C=N/NC(=O)c2cc3c(ccc4ccccc43)o2)c(OC)c1
→ 5.2, 3.7%, 0.5%, 2%, 1.3, -17%, 1%
> Nc1nncn1C(=O)CCCOc1ccccc1
→ 0.1, 1.3%, 3.3%, 14%, 4.6, 10%, 7%
> CCOC(=O)/C=C1\SCC(=O)N1CC(=O)NC(C)C
→ -3.1, -1.9%, -1.5%, 20%, 1.3, 14%, -4%[15.4 µM]
> COCC(C)NC(=O)CSc1nc(-c2ccccc2)c(-c2ccccc2)o1 (stereo unspecified)
→ -1.6, -16%, -1.2%[38.3 µM], -15%, -4.8, -13%, 23%
> CCCCC(CC)CNC(=O)CCCCn1c(=O)[nH]c2ccsc2c1=O (stereo unspecified)
→ -18, -0.3%, 0.4%&1.3%, -2%, 5.3, -8%, 7%[15.4 µM]
> O=C1CCCN1c1cccc(Br)c1
→ -5.8, 0.0%, 1.1%, -10%, 4.3, 11%, ?
> CC(C)(C)OC(=O)[C@H](CCCCN)NC(=O)c1nc[nH]c1C(=O)NCCCCCN
→ -3.6, -1.9%, 1.3%, ., ., 13%, .
> O=C1CC(C2CCCO2)C(=O)N1c1ccccc1 (stereo unspecified)
→ 1.0, 0.0%, 0.4%[38.3 µM], -1%, -0.4, 4%, -49%
> O=C(NCCc1ccccc1)C(=Cc1ccc(C(=O)O)cc1)C(=O)NCCc1ccccc1
→ -4.3, ., 0.0%, 29%, -1.4, -6%, 18%[15.4 µM]
> O=c1cc2c(=O)oc3cc(O)c(O)oc3c2c(O)c1O
→ 11, 2.0%, 4.5%, 5µM*, -4.5, ?, 0%
> Cc1c(C(=O)Nc2ccccn2)sc2nc3n(c(=O)c12)CCC3
→ -2.6, -6.8%, 2.6%, 3%, ., -12%, 19%
> COc1ccc(CNC(=O)C2CCN(c3nc(-c4ccccc4)nc4c3CCC4)CC2)cc1
→ -4.8, -20%, -0.3%, 50µM*, ., ?, -40%[inhibitor]
> COC(=O)c1ccccc1NC(=O)N1CCN(C/C=C/c2ccccc2)CC1
→ 2.2, -25%, -1.4%[38.3 µM], 11%, 2.1, 7%, -4%
> C[C@H]1NC(=O)[C@@]2(C)[C@@H](c3ccccc3)[C@H]3COc4ccccc4[C@@H]3N2C1=O
→ 0.7, 2.6%, -0.4%, ., ., 1%, 28%
> CCCCCOC(=O)C1=C(C)NC(=O)NC1c1ccccc1 (stereo unspecified)
→ 3.4, 1.0%, 0.5%, 18%, 0.7, 6%, -10%
> CCOC(=O)CS(=O)(=O)CC(=O)Nc1ccc([N+](=O)[O-])cc1OC
→ -1.1, -2.1%, -0.4%, 14%, -0.5, -36%, -6%[15.4 µM]
> COc1ccc(C2CC(O)(C(C)(C)O)NO2)cc1 (stereo unspecified)
→ 2.3, -1.1%, ., 2%, -0.9, 1%, 29%
> COc1ccc(C2(O)CCN(CCCCOc3ccccc3)CC2)cc1
→ -4.8, -20%, 4.5%[38.3 µM], -16%, 3.0, 9%, 7%
> O=C(NCCCN1CCOCC1)c1ccc(NS(=O)(=O)c2ccccc2)cc1
→ -3.2, -1.2%, -0.8%, 7%, ., 7%, 13%[15.4 µM]
> COc1ccc(NC(=O)CSCC(=O)OCc2cccc(OC)c2OC)cc1
→ -1.6, -1.2%, 0.0%, ., ., -17%, 9%
> COc1cccc(F)c1C(=O)NC(=O)Nc1ccc2nc(C)oc2c1
→ 13, ., 4.6%, -38%, ?, -3%, 21%
> COc1ccccc1CN1CCC2(CC1)CCN(C(=O)c1csnn1)CC2
→ ., ., 0.6%, -19%, 3.5, ., .
> FC(F)(F)c1cccc(Nc2nc(N3CCOCC3)nc(N3CCOCC3)n2)c1
→ 3.1, 1.0%, 1.3%, -6%, 2.7, -15%, 6%
> O=C(c1cc2c(F)cccc2s1)N1CCCC1
→ 0.3, ., 1.4%, 6%, -0.3, 1%, -5%[15.4 µM]
> COc1ccc(OC)c(NC(=O)C2(C)CCN2Cc2ccc(OC)c3ccccc23)c1 (stereo unspecified)
→ 4.8, -21%, 3.3%, ., ., ., .
> O=C(Cc1cccs1)NCc1cccs1
→ -0.1, 1.3%, ?, 3%, 2.5, 4%, -25%
> Cc1cnn(-c2ccc3nnc(-c4ccc(Cl)cc4)n3n2)c1
→ -4.1, -22%, 3.7%, 15%, 2.6, -5%[15.4 µM], -2%
> COCCNC(=O)CN1C(=O)COc2ccc(Cl)cc21
→ -1.2, -5.1%, 0.2%, 9%, 0.1, 9%, -30%[inhibitor]
> CCCCc1cc(=O)oc2cc(OCC(=O)N[C@@H](Cc3ccccc3)C(=O)O)ccc12
→ -5.4, 5.0%, 0.7%, 12%, -1.8, -1%, .
> Cc1ccnc(NC(=O)CSc2ccccn2)c1
→ -0.1, 0.4%, 0.0%, -1%, -2.2, 5%, 10%
> O=C(CSc1nnc(-c2ccncc2)n1-c1ccc(F)cc1)NNC(=O)c1cccc(O)c1
→ -4.6, -7.9%, -2.1%, 12%, 4.3, 18%, -34%[15.4 µM]
> C#CCN(CC=C)C(=O)CCc1nnc(COc2ccccc2)o1
→ -1.7, -0.5%, 0.1%, 11%, 0.1, -3%, -9%
> CC1(C)Cc2ccccc2C(C(=O)c2ccccc2)=N1
→ 1.3, -0.6%, 3.0%, 2%, -1.2, 5%, ?
> OCCN1CCN(c2ncnc3ccc(Br)cc23)CC1
→ -6.0, -0.9%, 1.1%, -1%, 4.6, 7%, ?
> CCc1nn(CC(=O)N2CCCCCC2)c(=O)c2cc3ccccc3n12
→ 3.2, -22%, 0.7%, 0%, -2.8, 8%, ?
> Cc1ccc(Cl)cc1N1CCN(S(=O)(=O)c2ccc3c(c2)NC(=O)C(C)C(=O)N3)CC1 (stereo unspecified)
→ -1.9, 0.5%, 4.6%, 17%, -4.6, -8%, 1%
> CCCc1nnc(NC(=O)CCC(=O)N2CCN(S(=O)(=O)c3ccc(OC)cc3)CC2)s1
→ -3.5, 0.6%, 0.4%, 18%, -1.1, 1%, ?
> CC(Oc1ccc(S(=O)(=O)N2CCCC2)cc1[N+](=O)[O-])C(=O)NC1(C#N)CCCCC1 (stereo unspecified)
→ 4.2, 1.2%, -0.4%, ., ., -12%, -36%[inhibitor]
> CCn1c(COc2ccccc2C)nnc1SCC(=O)CC(=O)Nc1ccccc1
→ -0.4, -5.0%, 6.5%[38.3 µM], 9%, 3.7, ?, 2%
> Cc1csc2c(N3CCN(C(=O)Nc4ccc(OC(F)(F)F)cc4)CC3)ncnc12
→ -0.5, -0.5%, 1.4%, 11%, 0.7, -20%, -23%[15.4 µM]
> O=C(CC(Nc1ccc(F)cc1)C(=O)OCC(=O)c1cccs1)c1ccccc1 (stereo unspecified)
→ 1.8, -1.0%, 4.0%, 35µM*, 0.0, 1%, -1%
> COc1cc(/C=C/C(=O)OCC(=O)NCC2CCCO2)ccc1OCC#N (stereo unspecified)
→ -3.8, ?, -1.7%, 22%, 4.9, -9%, 5%

Looked up above:
ClpP mod result of Cc1cnn(-c2ccc3nnc(-c4ccc(Cl)cc4)n3n2)c1 : -22%
D2 ag result of COc1cccc(F)c1C(=O)NC(=O)Nc1ccc2nc(C)oc2c1 : 13

Source: PubChem BioAssay (National Center for Advancing Translational Sciences (NCATS))
